Source: PubChem BioAssay (several laboratories)
BJeLR viability: kills HRASV12-expressing BJeLR cells | inhibition, % (concentration not given with the values) | BJeLR (HRASV12) viability, CellTiter-Glo ATP luminescence, 48 h; reference of the scale not given here | 0.17% of 300,000 active | AID 1554;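 active means replicate mean above 50%; inconclusive means above 50% but judged a plate artefact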;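 further: 50 nL library stock added to about 25 µL; numbers are from one replicate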
Mtb hypoxia rep: Mtb hypoxia fluorescent reporter inhibition. M. tuberculosis hypoxia-regulated fluorescent reporter, fluorescence. fluorescence inhibition, % (no concentration beside the values). 0.1% of 300,000 active. AID 1159583;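 active means 35 to 45% if threefold the growth effect, above 45% if 1.5-fold the growth effect; inactive means the rest, general growth blockers included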;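 further: wells of about 50 µL received 100 nL stock; 0% = vehicle wells and 100% = reference inhibitor wells; whole bacteria with a GFP reporter of the hypoxia response; strong numbers were not always called active; many hits fall short of the cut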
ugtP null kill: compounds lethal to S. aureus RN4220 ugtP deletion mutant | OD600 growth, 16 h; some inactives read as strong as hits | growth inhibition, % (test concentration not listed) | 0.54% of 330,000 active | AID 1259309;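 active means z-score under -3 and OD600 up to 0.15 on both plates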;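 further: plate controls were untreated wells for no effect and antibiotic for full effect; wells of about 80 µL received 100 nL stock; the first replicate is given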
Autofluor counter: compound fluorescence in toxin protease inhibitor counterscreen; compound autofluorescence counterscreen, microsphere flow cytometry; active compounds read high; fluorescence intensity (concentration not given with the values); 3.1% of 360,000 active; AID 624483;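 active means at least 3 SD above the mean of all compounds, about 16000 in these data; inconclusive means too few beads counted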;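 further: 100 nL of 1 mM stock went into each well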
PrP 5UTR inh: inhibition of PrP 5' UTR reporter expression | cell-based PrP 5' UTR mRNA reporter, plate reader | 0.35% of 340,000 active | AID 488862 | inhibition, % (concentration not given with the values);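 active means every replicate at 50% or more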;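 further: 0 = median of the neutral control wells; tested in H4 reporter cells; numbers are from one replicate; inactives centre near -14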
Sa RN4220 lethal: S. aureus RN4220 growth inhibition; inhibition, % (concentration not given with the values); 0.33% of 330,000 active; OD600, 16 h;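 active means z-score of -3 or lower and OD600 up to 0.18 on both plates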;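 further: plate controls were untreated cells for no effect and reference antibiotic for full effect; stock transfer was 100 nL into about 80 µL; one replicate is shown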
Mtb hypoxia rep growth: recorded beside Mtb hypoxia rep, whose call it bears; growth inhibition, %; measured here: M. tuberculosis growth (absorbance);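 0% = vehicle and 100% = reference antibiotic; read after six days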
The depositor's hits bear a star; ? = inconclusive; nt = not tested or not shown; & = joins results of further samples.

Structure	Mtb hypoxia rep	BJeLR viability	Mtb hypoxia rep growth	ugtP null kill	Autofluor counter	Sa RN4220 lethal	PrP 5UTR inh
CCO/C=C/C(=O)N(C)CCC#N	nt	-10	nt	5	2546	2.5	-11
N#Cc1nc(COc2cccc(Cl)c2)oc1NCc1ccco1	7	2	6	12	5081	7.7	-8
CCN1CCN(S(=O)(=O)c2ccc3[nH]c(=O)oc3c2)CC1	-2	-12	1	6	5042	3.8	-13
COCCCn1c(=C(C#N)C(=O)Nc2ccc(C(=O)O)cc2)sc(=Cc2cccc(OC)c2OC)c1=O	2	nt	9	11	nt	10	nt
COCc1cc(C)nc2sc(C(=O)Nc3cccc(OC)c3)c(N)c12	21	-5	12	5	3962	4.0	-67
Cc1ccc(-c2csc3nc(CSc4nnc(-c5ccc(Cl)cc5)n4C)[nH]c(=O)c23)cc1	17	-16	1	-2	3198	4.8	-9
Cc1nn(C)c(C(=O)Nc2ccc(Cl)c([N+](=O)[O-])c2)c1Cl	3	-7	5	-3	2117	5.3	-18
CC1(C)CC(=O)C2=C(C1)Nc1cc(C(=O)c3ccccc3)ccc1NC2c1ccccn1 (stereo not drawn)	3	-9	8	-4	2586	4.3	-16
CC(C)c1ccc(NC(=O)C2CC(=O)N=C(N)S2)cc1 (stereo not drawn)	nt	-23	nt	5	2970	0.4	-31
CCOc1ccc(S(=O)(=O)N2CCN(c3ccccc3OC)CC2)c2cccnc12	8	-3	16	-1	3974	4.3	-29
CC(=O)n1cc(C2C=C(C(=O)NCc3ccccc3)OC(OCc3ccc(CO)cc3)C2)c2ccccc21 (stereo not drawn)	-2&-3	nt	1&3	5&5	nt	4.5&-3.1	nt
COc1ccc(C2C(C(=O)N3CCCCC3)CC(=O)N2c2ccc(OC)cc2)cc1 (stereo not drawn)	5	-6	7	-5	4027	5.3	-14

9 entries already listed, sorted by heavy-atom count, rising:
Structure	Mtb hypoxia rep	BJeLR viability	Mtb hypoxia rep growth	ugtP null kill	Autofluor counter	Sa RN4220 lethal	PrP 5UTR inh
CCO/C=C/C(=O)N(C)CCC#N	nt	-10	nt	5	2546	2.5	-11
CC(C)c1ccc(NC(=O)C2CC(=O)N=C(N)S2)cc1 (stereo not drawn)	nt	-23	nt	5	2970	0.4	-31
Cc1nn(C)c(C(=O)Nc2ccc(Cl)c([N+](=O)[O-])c2)c1Cl	3	-7	5	-3	2117	5.3	-18
N#Cc1nc(COc2cccc(Cl)c2)oc1NCc1ccco1	7	2	6	12	5081	7.7	-8
COCc1cc(C)nc2sc(C(=O)Nc3cccc(OC)c3)c(N)c12	21	-5	12	5	3962	4.0	-67
COc1ccc(C2C(C(=O)N3CCCCC3)CC(=O)N2c2ccc(OC)cc2)cc1 (stereo not drawn)	5	-6	7	-5	4027	5.3	-14
CC1(C)CC(=O)C2=C(C1)Nc1cc(C(=O)c3ccccc3)ccc1NC2c1ccccn1 (stereo not drawn)	3	-9	8	-4	2586	4.3	-16
COCCCn1c(=C(C#N)C(=O)Nc2ccc(C(=O)O)cc2)sc(=Cc2cccc(OC)c2OC)c1=O	2	nt	9	11	nt	10	nt
CC(=O)n1cc(C2C=C(C(=O)NCc3ccccc3)OC(OCc3ccc(CO)cc3)C2)c2ccccc21 (stereo not drawn)	-2&-3	nt	1&3	5&5	nt	4.5&-3.1	nt

Further results
Structure	Mtb hypoxia rep	BJeLR viability	Mtb hypoxia rep growth	ugtP null kill	Autofluor counter	Sa RN4220 lethal	PrP 5UTR inh
Cc1ccc(OCc2ccc(C(=O)Nc3nc4ccccc4n3Cc3ccccc3)o2)c([N+](=O)[O-])c1	nt	-5	nt	-8	4585	1.8	9
COc1ccc(OC)c(CNC(=O)c2ccc(C)c(NC(=O)C3=C(C)OCCS3)c2)c1	5	0	6	12	4429	3.2	-4
CC(=O)C1CCC2C3CCC4CC(=O)CCC4(C)C3C(C)(O)CC12C (stereo not drawn)	9	nt	8	-7	3781	1.3	-12
CCSc1nnc(NC(=O)CSc2nnc(CNC(=O)c3ccc(OC)cc3)o2)s1	4	0	5	4	2325	4.0	-18
CC(C)(C)n1nnnc1CN1CCSCC1	8	-7	8	2	3463	0.1	-21
C=CCSc1nnc2c(n1)OC=Nc1ccc(Br)cc1-2	3	1	3	-2	3298	9.9	-70
Cc1nn(CC(=O)O)c(C)c1[N+](=O)[O-]	3	-4	-15	3	4452	3.3	-15
O=C(Nc1ccc(O)cc1)c1cc(S(=O)(=O)N2CCCC2)ccc1Cl	7	-2	1	5	20180*	-3.7	-20
CCOC(=O)c1cccc(NC(=O)CSc2nc3ccccc3c(=O)n2CCOC)c1	5	nt	11	-4	22521*	5.1	-3
S=C(NNc1ccnc2cc(Cl)ccc12)Nc1ccc(Cl)cc1Cl	13	14	4	6	4517	90*	-31
COc1ccc(-n2cnnc2SCC(=O)NCc2cccs2)cc1	0	9	7	2	2966	3.9	-6
Cc1ccc(S(=O)(=O)N2CCCC(NC(=O)N3CCN(c4ccccc4)CC3)C2)cc1 (stereo not drawn)	nt	-13	nt	6	3987	-3.4	-8
Cc1ccc(-c2cc(C(=O)OCC(=O)N(C)c3c(N)n(Cc4ccccc4)c(=O)[nH]c3=O)c3ccccc3n2)o1	-8	5	0	6	nt	2.0	-44
CCOc1ccc(N(CC(=O)NCc2ccccc2Cl)S(=O)(=O)c2c(C)noc2C)cc1	-1	-8	-6	9	4063	-1.0	-3
Cc1ccc(C(OC(=O)c2ccco2)C(=O)NCc2cccs2)cc1 (stereo not drawn)	7	-8	9	-5	3446	8.2	-2
COc1cc(NS(=O)(=O)c2cc3[nH]c(=O)c(=O)[nH]c3cc2C)cc(OC)c1OC	nt	-18	nt	4	5853	3.9	-2
CCCCC(C(=O)NC(=O)NCc1ccccc1)N1C(=O)c2ccccc2C1=O (stereo not drawn)	nt	6	nt	3	4171	3.3	-5
COc1ccccc1NC1=NCCS1	9	-7	6	6	4263	3.7	-27
Cc1nc(C(=O)N2CCC(n3nccc3NC(=O)Nc3ccccc3Cl)CC2)cs1	1	-5	1	-1	5580	-1.6	-14
O=C(CC(c1ccc(F)cc1)c1ccco1)N1CCOCC1 (stereo not drawn)	nt	-2	nt	-1	2198	0.7	47
COc1ccccc1NS(=O)(=O)c1cc(NC(=O)c2cc(=O)[nH]c3ccccc23)ccc1N1CCOCC1	-5	-9	3	0	5037	2.7	-21
CC(=O)c1c(C)[nH]c(C(=O)OCC(=O)N(C)C)c1C	2	3	8	8	10060	1.3	-26
Clc1ccc2oc(SCc3cccnc3)nc2c1	24	-1	9	8	3764	4.6	-23
Cc1ccc2c(c1)C(=O)c1ccccc1CS2=O (stereo not drawn)	4	1	7	2	11060	1.2	-21

Single records (already shown). Values in the order: Mtb hypoxia rep | BJeLR viability | Mtb hypoxia rep growth | ugtP null kill | Autofluor counter | Sa RN4220 lethal | PrP 5UTR inh
COc1cc(NS(=O)(=O)c2cc3[nH]c(=O)c(=O)[nH]c3cc2C)cc(OC)c1OC in the list: nt | -18 | nt | 4 | 5853 | 3.9 | -2
COc1ccccc1NS(=O)(=O)c1cc(NC(=O)c2cc(=O)[nH]c3ccccc23)ccc1N1CCOCC1 in the list: -5 | -9 | 3 | 0 | 5037 | 2.7 | -21
CC(=O)c1c(C)[nH]c(C(=O)OCC(=O)N(C)C)c1C in the list: 2 | 3 | 8 | 8 | 10060 | 1.3 | -26

Following part
Structure	Mtb hypoxia rep	BJeLR viability	Mtb hypoxia rep growth	ugtP null kill	Autofluor counter	Sa RN4220 lethal	PrP 5UTR inh
Cc1ccccc1CSc1nnc(-c2ccccn2)n1N	15	10	9	10	16160*	7.4	-36
CCOC(=O)c1ccccc1CN1C(=O)c2ccccc2S1(=O)=O	18	-2	6	12	3753	1.8	-19
O=C(Nc1ccccc1O)c1ccc(NC(=O)C2CC2)cc1	4	6	18	1	?	1.9	-83
CCOC(=O)C1CCCN(C2CC(=O)N(c3ccc(C(C)C)cc3)C2=O)C1 (stereo not drawn)	12	-6	7	4	1951	2.7	-16
O=C(N/N=C/c1cccc(OC(=O)c2cccc(Br)c2)c1)c1cccnc1	nt	4	nt	nt	6451	nt	-58
Cc1ccc(S(=O)(=O)NC2=NCN(CCOC(=O)c3ccc([N+](=O)[O-])cc3)CN2)cc1	3	4	10	-2	8160	0.9	-10
O=C(Cc1cc(=O)[nH][nH]1)N/N=C/c1c(Cl)cccc1Cl	nt	9&-13	nt	nt	1898&2507	nt	-4&-22
Cc1ccc(OCC(=O)Nc2ccc(S(=O)(=O)Nc3ccccn3)cc2)cc1C	-9	1	-26	1	2354	1.3	-10
CC1CC(C)CN(C(=O)CSc2nnc(-c3ccco3)o2)C1 (stereo not drawn)	22	-10	18	12	3708	5.7	-13
Fc1cccc(C2CCCCN2Cc2nc(C3CC3)no2)c1 (stereo not drawn)	5	-3	18	2	4007	2.2	-26
CC(=NNC(=O)c1ccc(F)cc1)c1ccccn1	20	nt	19	-9	nt	19	nt
CCOC(=O)c1cnc(SCC(=O)Nc2nnc(CC)s2)nc1N	16	10	9	3	12428	1.9	-21
CCOc1nc(Nc2ccccc2)nc(OCC)n1	3	4	-6	-7	3872	3.5	-6
C=C(C)COc1ccc(-c2n[nH]c(C)c2-c2ccccc2)c(O)c1	25	0	6	71	3094	-14	-15
CN(C)c1ccc(P(=O)(OCc2ccccc2)C(O)c2ccccc2)cc1 (stereo not drawn)	9	-1	1	-2	4535	3.8	-14
O=C(CN1C(=O)CSc2ccc(S(=O)(=O)N3CCCCC3)cc21)NCc1cccnc1	13	4	-5	9	2534	2.8	-6
CCC(C)[C@H](NC(=O)NCc1cccc(OC)c1)C(=O)O (stereo partly drawn)	9	4	12	5	13226	4.3	nt
Cc1noc(C)c1NC(=O)Nc1cccc2c1O[C@@H](CN(C)C)[C@@H](C)CN([C@H](C)CO)C2=O	4	nt	13	-6	4289	-7.7	-18
CCN(C[C@H]1N[C@@](C)(C(=O)OC)[C@H]2C(=O)N(Cc3ccccc3)C(=O)[C@@H]12)C(=O)c1ccc(F)cc1	4	nt	8	0	3424	1.4	-17
COc1ccc(C(=O)COc2ncnc3cc(Cl)ccc23)cc1	10	3	20	3	5367	1.2	-52
CCOC(=O)c1cnc2ccc(C(=O)OC)cc2c1NCc1ccco1	2	-10	2	1	nt	0.2	nt
COc1cc(/C=N/NC(=O)c2ccc(-c3ccccc3)cc2)cc(OC)c1OC	nt	-10	nt	nt	2166	nt	-25
N#C/C(=C\c1ccncc1)c1nc2c(s1)CCCC2	-2	10	3	4	2053	3.1	-12
CC(Cn1nnc2ccccc21)=NNC(=O)c1cccc(Br)c1	7	nt	0	-4	nt	1.8	nt
O=[N+]([O-])c1cc(S(=O)(=O)NC2=NCCCCC2)ccc1NCC1CCCCC1	9	2	4	12	3986	4.1	41
N#CC1(NC(=O)CN2C(=O)c3ccc([N+](=O)[O-])cc3C2=O)CCCCC1	2	-6	-4	3	?	1.1	-13
CCn1cc(C(=O)O)c(=O)c2cc(F)c(NN=Cc3ccccc3[N+](=O)[O-])cc21	3	nt	2	2	nt	9.3	nt
CC(C)C(=O)Nc1c(-c2ccccc2)c(=O)c2ccccc2n1C	9	-4	-3	2	4633	-0.2	-11
COc1cc(C=O)ccc1OCc1c(C)noc1C	5	-3	12	-10	21666*	9.4	-48
O=C(C[n+]1ccc(-c2nnc3n2CCC3)cc1)c1ccc(Cl)c(Cl)c1	6	12	3	8	2428	4.0	-10
O=C(Nc1ccncc1)Nc1cc(Cl)ccc1Cl	11	8	-5	3	4340	-9.3	-9
CC(=O)c1c(NC(=O)c2ccccc2)[nH]c(-c2ccccc2)nc1=S	-12	4	-47	-9	5268	1.1	41
NC(=O)COC(=O)/C=C/c1ccc2ccccc2n1	22	-1	19	7	4153	2.6	-19
CSc1cccc(NC(=O)CSc2ccccc2)c1	-1	2	6	2	4150	-4.7	-25
O=C(N/N=C/c1ccco1)c1cccc(NC(=O)c2ccccc2Cl)c1	nt	-7	nt	nt	3655	nt	-3
CCN1CCN(CCC(=O)Nc2cccc(OC)c2)CC1	1	-4	-2	6	3323	3.2	-2
S=C(NC1CC2CCC1C2)N1CCN(c2cccc(Cl)c2)CC1 (stereo not drawn)	10	5	9	-14	4359	-8.2	-24
Cc1noc(C)c1C(=O)NC(C)c1ccc2c(c1)OCO2 (stereo not drawn)	13	-2	5	0	10125	4.0	-1
CC(c1ccccc1)C(NC(=O)OCC1c2ccccc2-c2ccccc21)C(=O)O (stereo not drawn)	1	-1	10	-9	3871	11	-22
